Screening data deposited in PubChem BioAssay by Johns Hopkins Ion Channel Center.
KCNQ2 enhance – KCNQ2 (rat) channel potentiation. hit rate 0.54% among 310,000. CHO-K1 KCNQ2, FluxOR thallium flux fluorescence; stronger effect = higher value. B-score at 10 µM;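 active = fluorescence ratio B-score at least 3 SD of library B-scores, with initial fluorescence B-score within 3 SD, cut at about 5.3 in these data; same plate scores as AID 2156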;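 note: B-score of peak minus minimum over baseline fluorescence ratio after K+ and Tl+ stimulus; positive B-score means potentiation of KCNQ2 with more thallium influx and brighter signal; only the inactives scoring about 0 or higher are listed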
Target sequence (O88943 whole entry, looked up): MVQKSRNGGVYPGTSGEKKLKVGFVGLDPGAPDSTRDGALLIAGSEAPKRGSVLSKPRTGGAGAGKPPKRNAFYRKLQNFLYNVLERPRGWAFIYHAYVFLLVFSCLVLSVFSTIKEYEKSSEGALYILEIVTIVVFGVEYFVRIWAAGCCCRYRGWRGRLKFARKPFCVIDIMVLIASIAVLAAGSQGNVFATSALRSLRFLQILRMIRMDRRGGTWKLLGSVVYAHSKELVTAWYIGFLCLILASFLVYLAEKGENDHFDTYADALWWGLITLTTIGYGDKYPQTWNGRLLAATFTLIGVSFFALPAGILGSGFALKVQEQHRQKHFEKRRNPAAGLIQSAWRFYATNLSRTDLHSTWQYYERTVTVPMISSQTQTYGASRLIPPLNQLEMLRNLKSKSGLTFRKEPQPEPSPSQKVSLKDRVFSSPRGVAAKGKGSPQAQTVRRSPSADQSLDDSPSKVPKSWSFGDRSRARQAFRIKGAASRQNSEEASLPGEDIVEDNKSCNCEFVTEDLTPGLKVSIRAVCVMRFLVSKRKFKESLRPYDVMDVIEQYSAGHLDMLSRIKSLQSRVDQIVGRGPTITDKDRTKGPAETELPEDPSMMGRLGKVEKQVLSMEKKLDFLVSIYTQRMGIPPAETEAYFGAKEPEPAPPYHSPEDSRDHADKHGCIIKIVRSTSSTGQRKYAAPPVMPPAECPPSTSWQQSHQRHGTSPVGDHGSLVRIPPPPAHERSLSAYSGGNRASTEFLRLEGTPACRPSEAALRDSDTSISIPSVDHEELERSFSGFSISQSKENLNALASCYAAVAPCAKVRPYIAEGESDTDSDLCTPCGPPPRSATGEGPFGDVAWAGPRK
KCNQ2 enhance baseline – second read-out of KCNQ2 enhance, no call of its own (marks repeat the call); B-score; compound at 10 µM; measured here: initial fluorescence intensity artifact check;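 brightness before thallium and not channel activity; 0 = typical well and far values either way flag optical interference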
Numbers without * were called inactive. Only part of the results is shown; the hit share may differ from the screen's.

SMILES	KCNQ2 enhance	KCNQ2 enhance baseline
COC(=O)C1=C(C)N(c2ccc(F)c(Cl)c2)C(=O)C1	0.8	-1.32
CCN(CC)C(=O)c1scc2c1OCCO2	0.97	1.57
Cc1nc(NC(=O)C2CC2)sc1C(=O)N1CCCCC1	1.16	0.18
COc1cc(NC(=O)c2ccccc2Cl)ccc1NC(=O)c1cccs1	0.16	2.58
Cn1c(N)c(C(=O)c2ccc(Oc3ccccc3)cc2)c(=O)n(C)c1=O	0.84	2.65
Cc1cccn2c(=O)c(/C=C(\C#N)C(=O)NC3CCS(=O)(=O)C3)c(N3CCC(C(N)=O)CC3)nc12 (centres undefined)	0.42	-0.71
COc1ccc(NS(=O)(=O)c2cccc(C(=O)N/N=C/c3ccc(O)cc3)c2)cc1	0.56	0.66
CNS(=O)(=O)c1cnccc1N1CCN(C)CC1	0.01	0.95
CCCC(=O)Nc1ccc(C(=O)NN=C(C2CC2)C2CC2)cc1	0.54	0.55
Oc1[nH]c2ccccc2c1C1=NCCCC1	0.44	-0.42
CCOc1ccc(CCNC(=O)c2ccc(N3CCCC3=O)cc2)cc1OCC	0.98	-0.68
Cc1c(NC(=O)COC(=O)c2cc(-c3ccc(-c4ccccc4)cc3)nc3ccccc23)c(=O)n(-c2ccccc2)n1C	0.91	-0.04
CCOC(=O)N1CCC(NCCNC(=O)c2ccco2)CC1	1.45	2.3
Fc1cc(F)cc(NC(=S)N2CCC(c3ccccc3)C2)c1 (centres undefined)	1.85	0.74
CN(C(=O)CSc1cn(CC(=O)N2CCOCC2)c2ccccc12)c1ccccc1	0.08	-1.32
O=C(Cn1ccc([N+](=O)[O-])n1)Nc1nc2ccccc2s1	0.56	0
Cc1cc(C)c(NC(=O)Cn2c(=O)n(Cc3ccco3)c(=O)c3ccccc32)c(C)c1	0.73	0.27
Cc1nc2scc(-c3ccc(C(C)C)cc3)c2c(=O)n1N	0.01	0.06
CCCCNC(=O)C1CCN(C/C(C)=C/c2ccccc2)CC1	0.53	-0.05
COc1ccc(-c2nnn(CC(=O)N(CC(=O)NC3CCCC3)Cc3cccs3)n2)cc1OC	0.06	-0.44
Cc1c(C)c2c(OCC(=O)N3CCC(C(N)=O)CC3)cc3c(c2oc1=O)CCC(C)(C)O3	0.12	-1.15
C/C(=N\NC(=O)c1ccccc1O)c1cccs1	1.78	-0.98
CCN1CCN(c2ccc(S(=O)(=O)N3CCCCC3)cc2NC(=O)COc2ccccc2)CC1	0.29	-0.08
O=C(CCN1C(=O)[C@@H]2Cc3ccccc3CN2C1=O)NCc1ccccc1	0.44	1.49
COC(=O)c1cc(=O)n2c(sc3ccccc32)c1C#N	2.27	-1.56
COc1ccc(-c2nc3cc(NC(=O)Cc4ccc(OC)c(OC)c4)ccc3o2)cc1	1.41	1.19
CO/N=C/C(C#N)=C/c1ccc(OC)c(OC)c1	1.62	-0.18
COC(=O)c1cnn2c(C(F)(F)F)cc(-c3ccccc3)nc12	2.47	3.13
CCN(CC)CCCNc1ncnc2ccccc12	0.36	-1
COc1ccc(C(=O)Cc2ccc(OC)c(OC)c2)c(OC)c1	0.7	0.01
COC(=O)c1cc(Cl)cc2c(C)c(C3(O)CCCCC3)[nH]c12	0.27	-0.05
COc1cc(C(=O)NCC(=O)OC(C)C(=O)Nc2ncc(Cl)cc2Cl)cc(OC)c1OC (centres undefined)	1.12	0.59
O=S(=O)(Nc1cc(Cl)ccc1N1CCCCC1)c1cccs1	0.61	-0.14
COc1ccc(OCC(=O)N/N=C/C(C)=C/c2ccco2)c(Br)c1	0.11	-0.82
CCn1c(=O)cc(SCC(=O)N2CCCCC2)c2ccccc21	0.04	0.44
Cc1cc(C(=O)Nn2c(C)nc3ccccc3c2=O)ccc1[N+](=O)[O-]	0.75	-0.79
COc1ccccc1NC(=O)Nc1ccnn1C1CCN(C(=O)c2cccnc2)CC1	0.69	0.72
CN1CCc2[nH]c3ccc(C(=O)NN)cc3c2C1	0.26	-0.69
Cc1ccc(CNC(=O)COC(=O)CSc2ccc(Br)cc2C)cc1	1.61	-1.9
O=C(O)c1cccc(-n2cc(-c3cccc(C(F)(F)F)c3)cn2)c1	2.88	0.11

3 entries out of the list above, ordered by the value under KCNQ2 enhance, highest first:
SMILES	KCNQ2 enhance	KCNQ2 enhance baseline
C/C(=N\NC(=O)c1ccccc1O)c1cccs1	1.78	-0.98
COc1cc(C(=O)NCC(=O)OC(C)C(=O)Nc2ncc(Cl)cc2Cl)cc(OC)c1OC (centres undefined)	1.12	0.59
CN1CCc2[nH]c3ccc(C(=O)NN)cc3c2C1	0.26	-0.69

New compounds follow:
SMILES	KCNQ2 enhance	KCNQ2 enhance baseline
O=C(c1ccccc1)N1CCC(O)(c2cccnc2)CC1	0.64	0.97
O=C(Oc1cc(=O)oc2c1c(=O)n1c3c(cccc23)CC1)c1ccccc1	0.02	-0.57
O=C(COc1ccc(-c2nnco2)cc1)NCc1ccccc1Cl	1.19	-0.13
CC(C)(C)c1nn2cnnc2n(/N=C/c2ccccc2)c1=O	0.39	1.27
CCOC(=O)COc1ccccc1/C=N/O	0.19	0.38
Cc1cc(C)n(-c2ccc(C(=O)OCC(=O)Nc3ccc(S(=O)(=O)N4CCCCC4)cc3)cc2)n1	0.77	3.19
Cc1cc(=O)oc(C)c1C(=O)NCc1ccccn1	2.42	-0.04
COc1ccc(-c2coc3cc(O)ccc3c2=O)cc1O	1.31	1.01
Cc1cc(C)c2cc(C#N)c(N3CCCN(S(=O)(=O)c4ccccc4)CC3)nc2c1	1.67	0.9
Cc1nnc(SCC2=C(C(=O)O)N3C(=O)C(NC(=O)c4cc(F)c(F)cc4Cl)C3SC2)s1 (centres undefined)	1.35	-2.98
CCOC(=O)c1csc(NC(=O)c2cc3ccccc3o2)n1	0.26	-2.57
OC(COC(c1ccccc1)c1ccccc1)CN1CCCCC1 (centres undefined)	0.04	-0.47
COc1ccc(CC(=O)NCC2CCCN(Cc3ccc(F)c(OC)c3)C2)cc1 (centres undefined)	1.12	-1.04
Clc1cccc(Cl)c1C[n+]1ccc2ccccc2c1	1.99	-0.26
O=C1CN(C(=O)CSc2ccc(-c3ccc(F)cc3)nn2)c2ccccc2N1	0.89	-0.1
COC(=O)Cn1cnc2c(nnn2-c2cccc(OC)c2)c1=O	0.84	-0.32
O=C(COC(=O)c1c(F)cccc1F)Nc1ccc2[nH]c(=O)[nH]c2c1	0.39	-0.7
COc1ccc(NC(=O)CN(c2ccc(Cl)cc2)S(C)(=O)=O)cc1OC	0.45	0.29
COc1ccc(C2C(C#N)=C(N)Nc3nc4ccccc4n32)cc1 (centres undefined)	0.05	-0.35
Cc1ccc(NC(=O)C2CCC2)cc1S(=O)(=O)N1CCCCCC1	1.08	1
Cn1c(/N=C/c2c(O)ccc3ccccc23)nc2ccccc21	9.91*	-1.52*
Cc1ccc(NC(=O)CC2S/C(=N/N=C/C=C/c3ccccc3)NC2=O)cc1Cl (centres undefined)	1.06	-0.15
Cc1nn(-c2ccccc2)c(Cl)c1C(=O)NCC(=O)O	1.16	2.16
O=C(CSc1nnc(SCc2ccccc2)s1)N/N=C/c1c(Cl)cccc1Cl	3.59	0.04
CCOC(=O)C1CCCN(C(=O)c2cn(-c3ccccc3)nc2-c2cccnc2)C1 (centres undefined)	1.09	-0.03
CC(C)(C)c1[nH]nc2c1C(c1ccncc1)C(C#N)=C(N)O2 (centres undefined)	1.4	-0.25
OCC1(CCOc2ccccc2)CCN(Cc2cn[nH]c2-c2ccccc2)CC1	0.04	-0.49
O=C(O)/C(=C\c1ccccc1OC(F)F)c1ccc(-c2ccccc2)cc1	0.15	1.85
Cc1ccccc1Cn1nnc2c1C(=O)c1ccccc1C2=O	0.22	0.49
NC(=O)c1ccsc1NC(=O)COC(=O)c1ccc(Cl)nc1	1.49	-1.09
CC(Oc1ccccc1)C(=O)Nc1nnc(S(=O)(=O)N2CCCCCC2)s1 (centres undefined)	0.58	-0.02
CCOc1ccccc1CNc1nc2nc3c(c(=O)n2[nH]1)CCC3	0.05	2.55
O=C(NCc1ccc(F)cc1)c1ccc2c(=O)n3c(nc2c1)CCCCC3	0.53	-0.58
Cc1ccc(NC(=S)NCc2ccc(S(N)(=O)=O)cc2)cc1Cl	1.66	-1.06
O=C(NCc1ccccc1)C(C(=O)c1ccc(F)cc1)n1ccccc1=O (centres undefined)	0.19	3.93
COc1ccc(OC)c(Cc2nnc(CCC(=O)NCc3ccc(C)s3)o2)c1	0.5	0.98
O=C(/C=C/c1ccc2c(c1)OCO2)NCCCN1CCOCC1	0.25	1.73
CCCCn1c(N)c(N(CCOC)C(=O)c2cc(S(=O)(=O)N3CCCCC3)ccc2Cl)c(=O)[nH]c1=O	0.96	1.12
CCCCc1ccc(NC2=NCC(=O)N2CCc2ccccc2)cc1	0.09	-1.22
Cc1ccc(S(=O)(=O)N(C)Cc2ccc(-c3nnc4n3CCC4)cc2)cc1	0.84	-0.27

Another view of 7 compounds above:
compound | KCNQ2 enhance | KCNQ2 enhance baseline
Cc1ccccc1Cn1nnc2c1C(=O)c1ccccc1C2=O | 0.22 | 0.49
NC(=O)c1ccsc1NC(=O)COC(=O)c1ccc(Cl)nc1 | 1.49 | -1.09
CC(Oc1ccccc1)C(=O)Nc1nnc(S(=O)(=O)N2CCCCCC2)s1 (centres undefined) | 0.58 | -0.02
CCOc1ccccc1CNc1nc2nc3c(c(=O)n2[nH]1)CCC3 | 0.05 | 2.55
O=C(NCc1ccc(F)cc1)c1ccc2c(=O)n3c(nc2c1)CCCCC3 | 0.53 | -0.58
Cc1ccc(NC(=S)NCc2ccc(S(N)(=O)=O)cc2)cc1Cl | 1.66 | -1.06
O=C(NCc1ccccc1)C(C(=O)c1ccc(F)cc1)n1ccccc1=O (centres undefined) | 0.19 | 3.93

Other compounds.
SMILES	KCNQ2 enhance	KCNQ2 enhance baseline
COC(=O)c1[nH]c2ccccc2c1NC(=O)CN1CCN(Cc2ccc3c(c2)OCO3)CC1	0.05	-0.82
Cc1ccsc1C=C1C(=O)c2ccccc2C1=O	0.55	-0.24
Cc1ccc(C)c(C(=O)N2CCC(n3nccc3NC(=O)C3CC3)CC2)c1	3.11	-0.1
O=[N+]([O-])c1ccc(N2CCOCC2)cc1O	1.09	-0.36
Cc1ccn2cc(CCNS(=O)(=O)c3ccc4c(c3)OCCO4)nc2c1	0.96	-2.1
Cc1ccc(Oc2nnc(-c3ccc(C)cc3)c3ccccc23)cc1	1.36	-1.11
O=C(O)c1ccc(CSc2nnc(-c3ccco3)n2-c2ccccc2)cc1	1.19	1.51
CCSc1ncccc1C(=O)N[C@@H](CCSC)C(=O)OC	0.02	0.2
NC(=O)CN(c1ccc(Cl)cc1)S(=O)(=O)c1ccccc1	0.31	0.52
Cc1ncsc1C(=O)NCc1ccc(N2CCCC2=O)cc1	1.67	-0.32
CCOC(=O)C1=C(C)N=C2SCCC(=O)N2C1c1cccs1 (centres undefined)	0.56	-1.11
O=C(/C=C/c1ccco1)Nc1cc(Cl)ccc1C(=O)O	0.72	2.24
CC(C)CNC(=S)N1CCN(Cc2ccc3c(c2)OCO3)CC1	0.18	0.02
CCOC(=O)C1CSC(CC(=O)Nc2ccc(Cl)c(Cl)c2)C(=O)N1 (centres undefined)	2.3	0.27
O=C(NC(=S)NCCSc1ccccc1)c1cccnc1	0.1	0.22
CC(C)(C)NC(=O)c1ccccc1NC(=O)C1CCCO1 (centres undefined)	0.32	0.14
CCOc1ccc(CCNC(=O)COC(=O)/C=C/c2ccc(OC)c(OC)c2)cc1OCC	0.88	1.14
C=CCNS(=O)(=O)c1ccc(OCC(=O)OC)cc1	0.23	1.47
CC(=O)N1C(=O)N(C(C)=O)C2C1N(C(C)=O)C(=O)N2C(C)=O (centres undefined)	0.1	1.37
CCOc1cc(/C=N\NC(=O)CN2CCOCC2)ccc1OCc1ccc(F)cc1	0.67	-0.44
COc1cccc(-c2c(C(=O)N/N=C/c3cccnc3)nnn2-c2nonc2N)c1	0.85	1.41
Cc1cccc(OCc2nnc3n2CCCCC3)c1	0.3	0.25
O=C(Nc1c(F)cc(F)cc1Br)c1cc(-c2ccco2)on1	0.13	-2.02
COc1ccc(NC(=O)COc2ccccc2C(=O)NCC(c2ccccc2)N(C)C)cc1Cl (centres undefined)	1.24	-0.22
COc1ccc(NC(=O)N2CCc3ccccc3C2)cc1	0.63	1.6
O=C(CSc1ncnc2c1nnn2Cc1ccc(F)cc1)NC1CCCC1	0.7	1.25
O=C(Nc1ccccc1Cl)Nc1ccccc1Cl	1.34	-1.87
COCCNC(=S)N(Cc1cc2cc(C)ccc2n2nnnc12)C1CCCC1	0.25	2.4
CCCCN(C)C(=O)Cn1c(=O)oc2cc(S(=O)(=O)N3CC(C)CC(C)C3)ccc21 (centres undefined)	0.79	0.37
CC(=O)N1CCN(c2ccc(NC(=O)c3ccc4c(c3)OCCO4)cc2Cl)CC1	0.46	0.09
O=C(CCc1ccc(S(=O)(=O)N2CCOCC2)cc1)Nc1nccs1	0.07	-1.02
Cn1ncc(N=Cc2ccccc2)c1C(N)=O	0.98	-1.99
COCCn1c(-c2ccc(Cl)cc2)nc2c(c(=O)c3ccccc3n2C)c1=O	0.59	0.41
Cc1ccc(NC(=O)CS(=O)CC(=O)NCC2CCCO2)cc1 (centres undefined)	1.88	-1.17
CN(CCc1ccccn1)C(=S)Nc1cccc(S(=O)(=O)N(C)C)c1	0.69	2.25
CC(C)N1CC(C(=O)Nc2nc3ccccc3s2)CC1=O (centres undefined)	0.23	0.69
CCOC(=O)c1ccc(NC(=S)N2CCN(CCNC3=CC(=O)CC(C)(C)C3)CC2)cc1	0.09	-0.49
CCSc1ccc([C@@H]2[C@@H]3C(=O)N(CC)C(=O)[C@@H]3[C@]3(C(=O)OC)CCCCN23)cc1OC	0.18	1.3
CCCC(=O)Nc1nc2ccc(S(N)(=O)=O)cc2s1	0.01	-0.69
Cc1c(O)ccc(C(=O)CN2C(=O)c3ccccc3C2=O)c1O	1.54	-0.9
